# LANA-H2A inh = blocks KSHV LANA binding to histone H2A/H2B; actives 0.6% (n = 320,000); Q9QR71; cell-free LANA-H2A/H2B peptide, fluorescence polarization; AID 2629; inhibition, % (no concentration beside the values); in the data active = inhibition mostly above about 10%, no sharp cut-off; inactive = mostly below about 6.7%;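 note: stock transfer was 7.5 nL into about 10 µL; 0% = median of vehicle wells and 100% = median of positive control wells; one replicate is shown; the record names a cut of 25% in any replicate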
# Target sequence (Q9QR71 whole entry, looked up): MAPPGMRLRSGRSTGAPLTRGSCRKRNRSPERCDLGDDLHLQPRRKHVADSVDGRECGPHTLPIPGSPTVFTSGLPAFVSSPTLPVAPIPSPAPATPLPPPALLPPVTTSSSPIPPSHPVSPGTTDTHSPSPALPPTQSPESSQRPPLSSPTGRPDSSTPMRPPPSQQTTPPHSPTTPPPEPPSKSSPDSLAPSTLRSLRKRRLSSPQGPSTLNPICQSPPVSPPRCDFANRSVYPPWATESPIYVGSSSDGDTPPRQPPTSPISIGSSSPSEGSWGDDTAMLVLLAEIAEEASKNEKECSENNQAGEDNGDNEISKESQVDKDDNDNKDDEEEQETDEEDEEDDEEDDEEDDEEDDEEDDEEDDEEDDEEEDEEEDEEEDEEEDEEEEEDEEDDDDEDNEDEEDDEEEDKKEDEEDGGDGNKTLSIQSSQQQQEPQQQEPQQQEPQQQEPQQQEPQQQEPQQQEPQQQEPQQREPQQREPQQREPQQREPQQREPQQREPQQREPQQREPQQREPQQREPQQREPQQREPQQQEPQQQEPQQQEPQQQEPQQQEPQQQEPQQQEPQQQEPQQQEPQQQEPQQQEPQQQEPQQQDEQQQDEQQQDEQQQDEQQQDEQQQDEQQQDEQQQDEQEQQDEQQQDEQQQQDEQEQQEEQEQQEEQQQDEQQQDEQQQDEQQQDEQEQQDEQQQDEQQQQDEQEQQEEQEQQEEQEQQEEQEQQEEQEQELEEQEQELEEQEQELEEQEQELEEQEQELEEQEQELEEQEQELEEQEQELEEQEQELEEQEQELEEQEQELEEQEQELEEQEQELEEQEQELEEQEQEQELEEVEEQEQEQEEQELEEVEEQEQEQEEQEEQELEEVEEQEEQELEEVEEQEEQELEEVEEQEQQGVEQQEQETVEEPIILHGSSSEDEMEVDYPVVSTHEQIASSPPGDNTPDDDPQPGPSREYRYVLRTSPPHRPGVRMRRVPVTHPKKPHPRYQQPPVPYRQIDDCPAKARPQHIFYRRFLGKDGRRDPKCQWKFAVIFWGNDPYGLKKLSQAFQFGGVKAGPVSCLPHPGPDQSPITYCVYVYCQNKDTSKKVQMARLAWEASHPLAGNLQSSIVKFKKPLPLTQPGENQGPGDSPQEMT
# T cruzi inh = T. cruzi replication inhibition; AID 1885; actives 1.4% (n = 300,000); T. cruzi beta-gal in NIH3T3, luminescence, 90 h; inhibition, % (no concentration beside the values);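 active = mean inhibition across valid replicates above about 55%, limit read from the data; inconclusive = mean below that limit but half or more replicates reach it; inactive = mean below it, under half of replicates reach it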;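 note: signal also drops with host cell toxicity which is not excluded here; 0% = plate median of DMSO wells and 100% = zero luminescence signal; higher percent means less beta-gal luminescence so fewer parasites; stock transfer was 50 nL into about 50 µL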
# Beta cell apopt = beta cell apoptosis inhibition. actives 0.8% (n = 300,000). INS-1E cytokine-induced death, ATP luminescence, 48 h; percent of positive-control rescue, neutral wells zero. protection from apoptosis, % (concentration not given with the values);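 active = all replicates at 75% or more, or half of them and the mean; inconclusive = half reach 75% but not the mean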;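 note: 0% = cytokine-treated negative control wells and 100% = positive control rescue; higher means more ATP so stronger rescue from cytokine killing; wells of about 40 µL received 100 nL stock; the first replicate is given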
# A1 inh = inhibitors of the anti-apoptotic protein A1, read as caspase activation; MEF A1-2A-BIM cells, Caspase-Glo 3/7 luminescence, 3 h; percent of clofoctol response, vehicle zero; caspase activation, % (no concentration beside the values); actives 0.066% (n = 330,000); AID 2462;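 active = over half of replicate activation scores above 10%, or exactly half above 10 with the replicate mean above 10; inconclusive = replicate mean below 10 yet half the replicates above 10; inactive = over half of replicates below 10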;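 note: wells of about 30 µL received 50 nL stock; many hits fall short of the cut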
# RanGTP-Imp inh = inhibitors of RanGTP-importin-beta interaction, primary screen, biochemical, FRET, CFP-Ran, YFP-importin-beta, homogeneous; cell-free CFP-Ran/YFP-importin-beta FRET ratio; inhibition, % (concentration not given with the values); actives 1.1% (n = 300,000); AID 2216;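 active = most replicates above 15%; inconclusive = exactly half above 15%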;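 note: 0% = DMSO wells and 100% = Ran loaded with GDP instead of GTP; wells of about 40 µL received 100 nL stock; the first replicate is given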
# Beta2AR agonist = activates human beta-2 adrenergic receptor causing internalization; P07550; Am2.2-beta2AR cells, FAP receptor internalization, flow cytometry; reference of the scale not given here; response, % (concentration not given with the values); actives 0.43% (n = 340,000); AID 504454;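 active = response above a set limit, near 3 SD of response in nonfluorescent compounds, cut at about 42% in these data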;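 note: stock transfer was 100 nL into about 11 µL; a reference agonist was the positive control; negative values mostly stem from fluorescent compounds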
# Calb FLC = C. albicans growth modulation with fluconazole. growth inhibition, % (test concentration not listed). actives 0.57% (n = 300,000). C. albicans CaCi-2 (fluconazole-resistant clinical isolate) + fluconazole, Alamar Blue growth, 48 h;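 active = most replicates above 75%; inconclusive = exactly half above 75%; inactive = most below 75%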;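 note: all wells also contain fluconazole at 8 µg/ml as a sub-toxic cotreatment; 0% = median of DMSO wells and 100% = median of geldanamycin control wells; wells of about 8 µL received 7.5 nL stock; the first replicate is given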
# UCH37 DUB inh = human UCH37 deubiquitinating enzyme inhibition; actives 0.33% (n = 330,000); inhibition, % (concentration not given with the values); purified proteasome/UCH37, Ub-AMC cleavage fluorescence; Q9Y5K5; AID 588478;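 active = mean of two replicates above 20%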;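 note: 0% = compound-free wells with enzyme and 100% = wells lacking proteasome; stock transfer was 100 nL into about 20 µL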
#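 Material: Human UCH37 enzyme supplied as purified proteasome complex | Schedule: 30 min preincubation with enzyme, 25 min cleavage at room temperature | Detection: AMC fluorescence 355/460 nm | Measure: % inhibition of Ub-AMC cleavage fluorescence | Controls: Wells without proteasome as full block, compound-free enzyme plus substrate as uninhibited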
# Active calls of the source: *; ? = inconclusive; . = not tested or not shown.
SMILES,LANA-H2A inh,T cruzi inh,Beta cell apopt,A1 inh,RanGTP-Imp inh,Beta2AR agonist,Calb FLC,UCH37 DUB inh
O=C(Nc1nc(-c2ccccc2)cs1)C1COc2ccccc2O1 (stereo unspecified),1.3,1,-3,0.0,1.8,1,-30,-2.9
COc1ccc(S(=O)(=O)Nc2ccccn2)c(C)c1C,2.5,13,3,-0.3,-1.9,-2,-1,0.3
CN1CCN(C(CNC(=O)c2ccc(Br)o2)c2ccc(F)cc2)CC1 (stereo unspecified),-0.9,62*,6,-0.6,-1.3,-13,-11,2.5
CCn1c(SCC(=O)N2CCCC2)nc2ccccc2c1=O,-0.9,-1,.,0.5,-0.1,-7,-6,-0.8
CCOc1ccc2nc(NS(=O)(=O)c3ccc(NC(C)=O)cc3)sc2c1,-2.7,-3,-2,0.1,-3.6,0,4,0.6
Cc1nc(C)n(CC(O)COc2ccc(C(=O)c3ccccc3)cc2)n1 (stereo unspecified),0.7,0,5,0.5,4.2,-3,1,4.2
COc1cc(C(=S)N2CCCCC2)ccc1OCC(=O)Nc1ccccc1Cl,-0.2,13,4,0.6,8.6,1,29,-0.4
CCOC(=O)c1c(/N=C/c2cccc(C)c2O)sc2c1CCN(C)C2,.,8,2,0.7,12,-2,3,.
CNC(=O)COc1coc(CN2CCN(c3ccc(F)cc3)CC2)cc1=O,2.4,-39,.,0.4,2.8,-1,-2,5.5
COc1ccc(N2CSC3=C(C#N)C(c4cccc(OC)c4OC)CC(=O)N3C2)cc1 (stereo unspecified),-1.1,-4,-9,-0.6,2.3,3,1,8.9
NS(=O)(=O)c1cnccc1NCCc1ccccc1,4.6,-17,-2,0.0,1.6,-5,18,0.2
CSc1nnc(C)c(/C=C/Nc2ccc(F)cc2)n1,2.0,12,-5,-0.3,-8.2,-1,7,7.2
CCN(CC)CC(=O)N1N=C(c2cccs2)CC1c1ccco1 (stereo unspecified),-2.6,11,-5,-0.5,0.0,-4,3,-28
CSc1ccccc1C(=O)N(C)C(c1ccccc1)c1ccccc1,1.2,25,.,0.4,0.0,1,-3,6.6
Clc1ccc(-c2[nH]ncc2N=Nc2ccccc2)cc1,-2.4,21,?,-0.4,4.2,-17,?,.
COc1ccc(-c2csc(N(CCCN3CCOCC3)C(=O)c3ccco3)n2)cc1,-2.1,38,0,0.7,0.6,1,17,1.7
CCC(C)N(C(=O)COc1ccc(NC(C)=O)cc1)C1CCS(=O)(=O)C1 (stereo unspecified),0.8,5,-8,-0.9,0.6,-2,-13,0.8
CCCCn1c(SCC(=O)c2ccccc2)nc2c1c(=O)[nH]c(=O)n2C,-3.4,-7,-1,0.1,-0.9,-42,-5,1.1
Cc1cccc(NS(=O)(=O)c2cc3c4c(c2)CC(=O)N4CCC3)c1C,-5.1,5,-5,-0.8,1.9,12,6,1.1
CN1C(=O)NC(NC(=O)c2ccncc2)(C(F)(F)F)C1=O (stereo unspecified),-0.8,-5,-6,0.1,1.0,7,-5,3.9
O=C(NCCc1ccccc1)N1CCCC(CNS(=O)(=O)Cc2ccccc2)C1 (stereo unspecified),4.2,0,-14,-0.4,2.8,-3,1,6.7
S=C(Nc1ccc(Oc2ccccc2)cc1)N1CCOCC1,0.5,1,-3,0.1,-2.7,-11,-10,2.5
CSc1ccccc1NC(=O)Nc1cccc(Cl)c1,.,21,.,.,5.7,6,-5,1.9
COc1ccc(-c2c(C#Cc3ccsc3)c3cc(-c4cccc5[nH]ccc45)ccc3n2C)cc1,1.5,.,7,1.7,.,4,.,-27
O=C(NC(=S)Nc1cccc2ncccc12)c1ccccc1,0.9,-4,-3,0.8,-1.3,-8,43,0.6

# Record cards, from the list above. Order of screens: LANA-H2A inh, T cruzi inh, Beta cell apopt, A1 inh, RanGTP-Imp inh, Beta2AR agonist, Calb FLC, UCH37 DUB inh
# Shown for CCOC(=O)c1c(/N=C/c2cccc(C)c2O)sc2c1CCN(C)C2 = ., 8, 2, 0.7, 12, -2, 3, .
# Shown for COc1ccc(N2CSC3=C(C#N)C(c4cccc(OC)c4OC)CC(=O)N3C2)cc1 (stereo unspecified) = -1.1, -4, -9, -0.6, 2.3, 3, 1, 8.9

# (next part)
SMILES,LANA-H2A inh,T cruzi inh,Beta cell apopt,A1 inh,RanGTP-Imp inh,Beta2AR agonist,Calb FLC,UCH37 DUB inh
COc1ccc2sc(-c3ccccc3OC)c(C#CC(C)(C)O)c2c1,0.5,.,-9,0.0,.,-3,.,-1.2
COc1cc(-c2ccccc2)[nH]c(=S)n1,2.9,.,-3,0.0,.,1,.,0.6
O=c1c(-c2ccccc2)c[nH]n1-c1cccc([N+](=O)[O-])c1,1.0,-1,5,-5.3,-2.3,9,-5,1.4
O=C(O)c1ccccc1C(=O)Nc1ccc(Oc2ccccc2)cc1,-1.3,13,.,0.6,4.5,-7,-1,0.9
CCS(=O)(=O)c1ccc2oc(SCC(=O)NC3CCCC(C)C3C)nc2c1 (stereo unspecified),-8.7,9,3,0.3,-0.8,-3,-5,1.4
CCCN1C(=O)SC(CC(=O)Nc2ccc(Br)cc2)C1=O (stereo unspecified),-2.7,10,-3,?,2.3,1,-5,2.0
O=C(CN(CCc1ccccc1)Cc1ccccc1)Oc1ccccc1P(=O)(O)O,-3.1,-4,-8,0.4,5.2,-7,25,1.6
CCCCOC(=O)CSCC(=O)Nc1cc(C)on1,0.9,-8,5,0.3,-0.1,3,0,1.7

# Some of these compounds in order of molar mass, rising.
SMILES,LANA-H2A inh,T cruzi inh,Beta cell apopt,A1 inh,RanGTP-Imp inh,Beta2AR agonist,Calb FLC,UCH37 DUB inh
COc1cc(-c2ccccc2)[nH]c(=S)n1,2.9,.,-3,0.0,.,1,.,0.6
O=c1c(-c2ccccc2)c[nH]n1-c1cccc([N+](=O)[O-])c1,1.0,-1,5,-5.3,-2.3,9,-5,1.4
CCCCOC(=O)CSCC(=O)Nc1cc(C)on1,0.9,-8,5,0.3,-0.1,3,0,1.7
COc1ccc(S(=O)(=O)Nc2ccccn2)c(C)c1C,2.5,13,3,-0.3,-1.9,-2,-1,0.3
CSc1ccccc1NC(=O)Nc1cccc(Cl)c1,.,21,.,.,5.7,6,-5,1.9
CN1C(=O)NC(NC(=O)c2ccncc2)(C(F)(F)F)C1=O (stereo unspecified),-0.8,-5,-6,0.1,1.0,7,-5,3.9
S=C(Nc1ccc(Oc2ccccc2)cc1)N1CCOCC1,0.5,1,-3,0.1,-2.7,-11,-10,2.5
O=C(O)c1ccccc1C(=O)Nc1ccc(Oc2ccccc2)cc1,-1.3,13,.,0.6,4.5,-7,-1,0.9
Cc1nc(C)n(CC(O)COc2ccc(C(=O)c3ccccc3)cc2)n1 (stereo unspecified),0.7,0,5,0.5,4.2,-3,1,4.2
CCOC(=O)c1c(/N=C/c2cccc(C)c2O)sc2c1CCN(C)C2,.,8,2,0.7,12,-2,3,.
CCCN1C(=O)SC(CC(=O)Nc2ccc(Br)cc2)C1=O (stereo unspecified),-2.7,10,-3,?,2.3,1,-5,2.0
CCCCn1c(SCC(=O)c2ccccc2)nc2c1c(=O)[nH]c(=O)n2C,-3.4,-7,-1,0.1,-0.9,-42,-5,1.1
CCOc1ccc2nc(NS(=O)(=O)c3ccc(NC(C)=O)cc3)sc2c1,-2.7,-3,-2,0.1,-3.6,0,4,0.6
COc1cc(C(=S)N2CCCCC2)ccc1OCC(=O)Nc1ccccc1Cl,-0.2,13,4,0.6,8.6,1,29,-0.4
O=C(CN(CCc1ccccc1)Cc1ccccc1)Oc1ccccc1P(=O)(O)O,-3.1,-4,-8,0.4,5.2,-7,25,1.6
COc1ccc(-c2csc(N(CCCN3CCOCC3)C(=O)c3ccco3)n2)cc1,-2.1,38,0,0.7,0.6,1,17,1.7
COc1ccc(N2CSC3=C(C#N)C(c4cccc(OC)c4OC)CC(=O)N3C2)cc1 (stereo unspecified),-1.1,-4,-9,-0.6,2.3,3,1,8.9
COc1ccc(-c2c(C#Cc3ccsc3)c3cc(-c4cccc5[nH]ccc45)ccc3n2C)cc1,1.5,.,7,1.7,.,4,.,-27

# Hits appear at their usual frequency; overall some 4.3% were active at least once.
